# CSC inhib = cancer stem cell inhibition; cancer stem cell-like cells viability, luminescence; inhibition, % at 7.5 µM; hit rate 1.1% among 300,000; AID 2717;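 active means mean at 75% or more and at least half the replicates too; tested in HMLE shEcad cells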;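 further: 0% = median of negative and 100% = median of positive control wells; the first replicate is given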
# PABP polyA inh = PABP-poly(A) binding inhibition | P11940 | hit rate 1% among 290,000 | AID 2014 | PABP-poly(A) RNA binding, fluorescence polarization | inhibition, % at 35 µM;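 active means 50% or more with normal probe brightness, or confirmed in later tests; about a fifth of its hits are not listed in these tables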;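 further: calls also rest on retests at 20 µM and on dose response follow-up; controls were probe without protein and protein plus probe with vehicle; some compounds called inactive have numbers as strong as hits; many hits fall short of the cut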
# Target sequence (P11940 whole entry, looked up): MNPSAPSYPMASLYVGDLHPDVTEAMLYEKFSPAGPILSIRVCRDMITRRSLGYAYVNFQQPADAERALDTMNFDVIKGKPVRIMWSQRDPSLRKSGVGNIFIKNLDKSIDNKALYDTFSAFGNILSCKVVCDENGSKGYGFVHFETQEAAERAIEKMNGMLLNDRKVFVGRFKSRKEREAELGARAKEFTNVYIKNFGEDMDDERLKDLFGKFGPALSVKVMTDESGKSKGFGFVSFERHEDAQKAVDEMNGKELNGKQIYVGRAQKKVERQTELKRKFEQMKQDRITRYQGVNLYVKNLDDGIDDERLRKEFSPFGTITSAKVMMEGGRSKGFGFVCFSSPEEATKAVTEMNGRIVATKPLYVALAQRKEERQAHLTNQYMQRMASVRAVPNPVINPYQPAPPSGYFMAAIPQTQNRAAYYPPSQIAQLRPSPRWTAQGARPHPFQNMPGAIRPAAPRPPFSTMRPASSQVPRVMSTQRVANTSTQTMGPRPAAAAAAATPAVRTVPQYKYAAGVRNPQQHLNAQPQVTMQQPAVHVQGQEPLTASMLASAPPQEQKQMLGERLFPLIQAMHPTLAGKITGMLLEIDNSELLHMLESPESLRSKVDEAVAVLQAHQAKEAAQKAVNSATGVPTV
# Rce1 inhib = blocks yeast Ras-converting enzyme | AID 2563 | yeast membranes, quenched prenylated peptide cleavage fluorescence | hit rate 0.27% among 290,000 | calls only | Q03530;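 active means fall in fluorescence gain of 50% or more versus controls, with final raw signal at or below 3038400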;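 further: plate controls were neutral control wells for no effect and wells lacking membranes for full effect; tested at 10 µM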
# HIV Env fusion = inhibitors of HIV Env-mediated cell fusion. HeLa-JRFL Env/CEM21 cell fusion, luciferase. inhibition, % at 12.3 µM. hit rate 1.1% among 360,000;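 active means mean replicate inhibition score of at least 50 and every replicate individually at or above 50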;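 further: 0% = plate neutral controls and 100% = maraviroc near 300 nM; one replicate is shown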
# eIF4H FP inh = inhibitors of RNA binding by human eIF4H. inhibition, % at 35 µM. eIF4H fluorescence polarization binding assay. hit rate 0.94% among 290,000;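 active means 50% or more with normal probe brightness, or confirmed in later tests; about a fifth of its hits are not listed in these tables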;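 further: calls also rest on retests at 20 µM and on dose response follow-up; 0% = protein and probe with vehicle and 100% = probe without protein; strong numbers were not always called active; many hits fall short of the cut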
# MT1-MMP act inh = inhibitors of human MT1-MMP activation. P50281. HT1080 RFP-PRO-GFP cells, GFP/RFP ratio fluorescence, overnight; percent of plate control window, DMSO zero. GFP/RFP ratio change, % at 20 µM. hit rate 0.061% among 360,000. AID 651647;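 active means GFP/RFP ratio change of at least 30% with cell ATP level not reduced by more than half and red fluorescence within 50% of control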; further: strong numbers were not always called active
#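 Assay system – RFP-PRO-GFP reporter HT1080 cells · Compound dosing – single dose of 20 µM compound, 1% DMSO final · Incubation – overnight compound exposure at 37 °C · Measure – GFP/RFP fluorescence ratio · Benchmarks – DMSO wells and RFP-L50D-GFP cells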
# UUG fidelity = yeast start codon fidelity modulation. S. cerevisiae UUG-firefly luciferase reporter, luminescence/redox ratio. activity score, % at 18.7 µM. hit rate 0.13% among 350,000. AID 602363;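 active means replicate mean at a twofold rise or more, about +100% in these data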;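 further: firefly luciferase made from a UUG start codon reports start codon fidelity; reporter light over untreated wells divided by growth signal over untreated wells; some hits fall short of that in this replicate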
# MT1-MMP act inh RFP = further read-out of MT1-MMP act inh, marked with its call; RFP signal change, %; measured here: RFP expression control read;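 0 = vehicle wells; hits needed this value within 50% of zero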
# * marks the source's active call; other numbers are inactive results; i = inactive; . = no result given. Compounds were not picked by outcome. About 2.9% of those tested had a hit in this group.
[1] O=C(c1ccc(Cn2c(=O)[nH]c3ccccc3c2=O)cc1)N1CCN(c2ccc(Cl)cc2)CC1
[2] CC(=O)Nc1ccc(OC(=O)c2cccnc2)cc1
[3] Cc1ccc(-n2ncc3c2CCCC3NC(=O)CCC2=NNC(=O)CC2)cc1C (stereo not given)
[4] O=c1oc2ccccc2c(Nc2ccc3ccccc3c2)c1[N+](=O)[O-]
[5] Fc1ccc(CSc2nnc(-c3ccccn3)o2)cc1
[6] CCOc1ccc(/C=N/NC(=O)C(O)c2ccccc2)c(O)c1 (stereo not given)

Assay by compound	1	2	3	4	5	6
eIF4H FP inh	6	0	0	0	-2	7
HIV Env fusion	16	16	-6	.	-17	11
UUG fidelity	2	-4	-12	13	-9	-19
MT1-MMP act inh RFP	-9	5	0	-10	-4	-3
CSC inhib	17	7	2	41	.	5
Rce1 inhib	i	i	i	i	i	i
PABP polyA inh	-4	1	-7	9	4	7
MT1-MMP act inh	8	2	3	-5	2	1

[7] Cc1cc(C)n2c(SCC(=O)Nc3ccc(F)cc3F)nnc2n1
[8] O=c1[nH]c(SCc2c(Cl)cccc2Cl)nc2ccccc12
[9] Cc1cccc(CN2CCN([C@@H]3CS(=O)(=O)N[C@H]3COCc3ccccc3)CC2)c1
[10] S=C(Nc1ccc(Cl)c(Cl)c1)N1CCN(c2ccccn2)CC1
[11] CCn1nnnc1SCC(=O)NC1Cc2ccccc2C1
[12] Cc1nn(-c2ccccc2)c(C)c1/C=N/NC(=O)c1cc(-c2cccs2)[nH]n1

Assay by compound	7	8	9	10	11	12
eIF4H FP inh	-4	-4	.	-12	-5	-5
HIV Env fusion	-14	-8	-39	4	6	-38
UUG fidelity	.	.	-9	5	-6	.
MT1-MMP act inh RFP	1	0	1	5	2	-9
CSC inhib	-4	-2	.	.	-6	60
Rce1 inhib	i	i	.	i	i	i
PABP polyA inh	0	0	.	2	-1	-5
MT1-MMP act inh	0	3	1	4	0	14

[13] C/C(=N\NC(=S)Nc1cccc(C)c1)c1cc2ccccc2o1
[14] O=S(=O)(c1cccc(C(F)(F)F)c1)N1CCN(c2cnccn2)CC1
[15] Cc1cccc(C(=O)NC2CC(C)(C)NC(C)(C)C2)c1
[16] COc1cc2c(cc1NC(=O)C(C)Sc1ccc(C)cc1)oc1ccccc12 (stereo not given)
[17] O=C(Cn1ncc2ccccc21)N1CCc2ccccc21
[18] Cc1cc(NC(=O)c2ccc(S(=O)(=O)N3CCOCC3)cc2)nc2c1c(=O)oc1ccccc12

Assay by compound	13	14	15	16	17	18
eIF4H FP inh	7	1	-5	-18	16	2
HIV Env fusion	-21	14	.	.	31	.
UUG fidelity	.	.	.	.	-6	.
MT1-MMP act inh RFP	4	2	5	-6	6	.
CSC inhib	14	-10	-1	15	21	-8
Rce1 inhib	i	i	i	i	i	i
PABP polyA inh	4	-2	7	-14	-12	-3
MT1-MMP act inh	5	3	-4	-6	-1	.

[19] Cc1cc(C)nc(SCC(=O)N/N=C/c2cccc([N+](=O)[O-])c2)n1
[20] Oc1ccc2[nH]ccc2c1
[21] CCOC(=O)CCn1nc(-c2ccc(Cl)cc2)cc1N
[22] Cc1ccc2[nH]c(C(=O)Nc3ccc(F)cc3)cc2c1
[23] CC(CN(C(N)=O)c1ccccc1O)C(=O)O (stereo not given)
[24] Cc1ccc(C(=O)C2=C(O)C(=O)N(Cc3cccnc3)C2c2ccc(Br)cc2)o1 (stereo not given)

Assay by compound	19	20	21	22	23	24
eIF4H FP inh	-2	-2	-6	-1	4	-2
HIV Env fusion	.	.	.	-14	.	.
UUG fidelity	-16	-6	-15	-1	5	-23
MT1-MMP act inh RFP	-3	4	0	-13	4	0
CSC inhib	2	-5	14	0	-13	-8
Rce1 inhib	i	i	i	i	i	.
PABP polyA inh	4	-4	-9	-6	6	16
MT1-MMP act inh	-1	14	-3	3	-1	-2

# An excerpt from above in order of molar mass, smallest number first.
[23] CC(CN(C(N)=O)c1ccccc1O)C(=O)O (stereo not given)
[22] Cc1ccc2[nH]c(C(=O)Nc3ccc(F)cc3)cc2c1
[21] CCOC(=O)CCn1nc(-c2ccc(Cl)cc2)cc1N
[16] COc1cc2c(cc1NC(=O)C(C)Sc1ccc(C)cc1)oc1ccccc12 (stereo not given)
[24] Cc1ccc(C(=O)C2=C(O)C(=O)N(Cc3cccnc3)C2c2ccc(Br)cc2)o1 (stereo not given)
[18] Cc1cc(NC(=O)c2ccc(S(=O)(=O)N3CCOCC3)cc2)nc2c1c(=O)oc1ccccc12

Assay by compound	23	22	21	16	24	18
eIF4H FP inh	4	-1	-6	-18	-2	2
HIV Env fusion	.	-14	.	.	.	.
UUG fidelity	5	-1	-15	.	-23	.
MT1-MMP act inh RFP	4	-13	0	-6	0	.
CSC inhib	-13	0	14	15	-8	-8
Rce1 inhib	i	i	i	i	.	i
PABP polyA inh	6	-6	-9	-14	16	-3
MT1-MMP act inh	-1	3	-3	-6	-2	.

# The list goes on.
[25] NC(=O)Cn1cnc2c(nnn2-c2ccc(F)cc2)c1=O
[26] C#CCNC(=O)[C@H](Cc1ccc(C(=O)c2ccccc2)cc1)NC(=O)OC(C)(C)C
[27] COc1ccc(NC(=O)CN(C)C(=O)Cc2ccsc2)cc1
[28] CCCCc1nnc(NC(=O)C=C(C)C)s1
[29] CC(=O)Nc1ccc(N2CCN(Cc3ccccc3F)CC2)cc1
[30] Cc1ccc2cc3cc(C(=O)N4CCN(C(=O)c5ccco5)CC4)sc3nc2c1

Assay by compound	25	26	27	28	29	30
eIF4H FP inh	16	.	5	3	-10	5
HIV Env fusion	-1	12	-7	-15	-8	.
UUG fidelity	.	-8	-21	-7	-21	-3
MT1-MMP act inh RFP	1	-8	5	0	12	1
CSC inhib	-5	3	28	-13	-2	-3
Rce1 inhib	i	i	i	i	.	i
PABP polyA inh	-2	.	1	-1	-4	-6
MT1-MMP act inh	-2	-1	2	0	8	6

# Three of the entries above in order of the UUG fidelity value, highest first:
No. | SMILES | UUG fidelity
30 | Cc1ccc2cc3cc(C(=O)N4CCN(C(=O)c5ccco5)CC4)sc3nc2c1 | -3
26 | C#CCNC(=O)[C@H](Cc1ccc(C(=O)c2ccccc2)cc1)NC(=O)OC(C)(C)C | -8
27 | COc1ccc(NC(=O)CN(C)C(=O)Cc2ccsc2)cc1 | -21

# (further entries)
[31] CC(C)COC(=O)N1CCCCC1c1cc(C(=O)NCc2ccccc2)no1 (stereo not given)
[32] CCCCCOc1ccc(C(=O)NCCC(=O)NCCCC(=O)OCC)cc1
[33] COc1ccc2c(c1OC)C(=O)N(c1ccc(O)cc1)C2
[34] CCC1Cc2[nH]c(=S)[nH]c(=O)c2C(c2ccc(F)cc2)O1 (stereo not given)
[35] CN1OC[C@@H]2CN(S(=O)(=O)c3ccccc3)[C@H](c3ccccc3Br)C[C@@H]21
[36] COCCn1c(SCC(=O)Nc2ccc(Cl)c(S(=O)(=O)N(C)C)c2)nc2ccccc21

Assay by compound	31	32	33	34	35	36
eIF4H FP inh	.	12	14	.	.	10
HIV Env fusion	2	-28	-28	-6	-2	60*
UUG fidelity	10	.	-52	-9	5	3
MT1-MMP act inh RFP	-7	-2	4	0	1	-4
CSC inhib	.	-6	-9	.	.	-8
Rce1 inhib	.	i	i	.	.	i
PABP polyA inh	.	3	12	.	.	0
MT1-MMP act inh	-6	2	3	1	-1	6

# Reprinted from the part before: four compounds, then new ones.
[33] COc1ccc2c(c1OC)C(=O)N(c1ccc(O)cc1)C2
[34] CCC1Cc2[nH]c(=S)[nH]c(=O)c2C(c2ccc(F)cc2)O1 (stereo not given)
[35] CN1OC[C@@H]2CN(S(=O)(=O)c3ccccc3)[C@H](c3ccccc3Br)C[C@@H]21
[36] COCCn1c(SCC(=O)Nc2ccc(Cl)c(S(=O)(=O)N(C)C)c2)nc2ccccc21
[37] CC(C)(C)OC(=O)N[C@@H](COCc1ccccc1)C(=O)N[C@@H](CO)[C@H](O)[C@@H]1C[C@@H]1C(=O)NC1CCCCC1
[38] COc1ccccc1C1CCN(C(=O)c2cccc([N+](=O)[O-])c2)CC1
[39] Cc1cc(-n2c(C)cc(C(=S)N3CCOCC3)c2C)ccc1Br
[40] CCOc1ccc(C2C=C(c3ccccc3)Nc3nnnn32)cc1 (stereo not given)
[41] O=C(NCc1ccccc1)c1cc(-c2cccc(O)c2)on1
[42] CCCC(c1nnnn1CCOC)N1CCN(Cc2ccccc2)CC1 (stereo not given)

Assay by compound	33	34	35	36	37	38	39	40	41	42
eIF4H FP inh	14	.	.	10	-5	-1	-3	-1	-2	1
HIV Env fusion	-28	-6	-2	60*	0	4	24	-78	-56	.
UUG fidelity	-52	-9	5	3	2	.	.	-23	-18	1
MT1-MMP act inh RFP	4	0	1	-4	3	-1	-1	0	0	0
CSC inhib	-9	.	.	-8	-19	2	25	-6	-1	-2
Rce1 inhib	i	.	.	i	i	i	i	i	i	i
PABP polyA inh	12	.	.	0	-5	2	-10	4	-9	-1
MT1-MMP act inh	3	1	-1	6	4	1	-2	-11	1	-4

[43] Cc1cc(C)n(-c2nc3ccccc3nc2N2CCN(S(=O)(=O)c3cccc(C#N)c3)CC2)n1
[44] O=C(NCC1COc2ccccc2O1)C1C2C=CC3(CN(Cc4ccccc4Cl)C(=O)C13)O2 (stereo not given)
[45] CSCCC(C(=O)OC1CCOC1=O)N1C(=O)c2ccccc2C1=O (stereo not given)
[46] O=C(NC(C(=O)N/N=C/c1ccncc1)c1n[nH]c(=O)c2ccccc12)c1ccccc1 (stereo not given)
[47] CCCCn1c(N)c(N(CCOC)C(=O)COC(=O)C(C)(C)Oc2ccc(Cl)cc2)c(=O)[nH]c1=O
[48] C/C(=N\NC(=O)c1cccc(S(=O)(=O)N2CCCC2)c1)c1ccc(F)cc1

Assay by compound	43	44	45	46	47	48
eIF4H FP inh	-4	-7	31	0	.	.
HIV Env fusion	18	41	-17	-2	-79	27
UUG fidelity	-10	7	-17	.	-1	7
MT1-MMP act inh RFP	-25	-2	-1	0	-5	-1
CSC inhib	.	-15	-4	-8	7	-8
Rce1 inhib	i	i	i	i	i	i
PABP polyA inh	-13	2	8	-4	.	.
MT1-MMP act inh	-40	5	-1	1	-1	-2

[49] COc1ccc(N=C2S/C(=C\c3cc(C)n(C)c3C)C(=O)N2CC(C)C)cc1
[50] O=C/C=C/c1coc2ccc3ccccc3c2c1=O
[51] C/C(CCN1CCCCc2nc(C)c(C)cc21)=N\O[C@H](C)c1cn([C@H](CO)Cc2ccccc2)nn1
[52] Cc1ccc(-c2nc3c(c(=O)c4ccccc4n3C)c(=O)n2-c2ccc(F)cc2)cc1
[53] CS(=O)(=O)NCCC1=CCCCC1
[54] CC(C)(C)c1ccc(OCC(O)CN2CCc3ccccc3C2)cc1 (stereo not given)
[55] O=C(/C=C/c1ccco1)Nc1ccc2c(c1)OCCO2
[56] CC(=O)N(C)c1ccc(NC(=O)c2ccco2)cc1
[57] COc1ccc(S(=O)(=O)NCC2CCC(C(=O)NCC(OC)OC)CC2)cc1 (stereo not given)

Assay by compound	49	50	51	52	53	54	55	56	57
eIF4H FP inh	-4	-5	21	1	-4	.	11	-5	-6
HIV Env fusion	.	-3	.	-23	-36	22	-75	-45	-3
UUG fidelity	-24	.	.	.	1	-17	.	-25	.
MT1-MMP act inh RFP	2	.	.	-5	0	4	1	-2	2
CSC inhib	45	7	-2	-4	0	54	-6	.	1
Rce1 inhib	i	i	i	i	i	.	i	i	i
PABP polyA inh	2	0	9	-7	2	.	0	1	-13
MT1-MMP act inh	2	.	.	-7	-4	3	3	2	-1

# Screening results (PubChem)
